# NOMO-1 viab – STK33 inhibitor candidate reducing NOMO-1 cell viability; NOMO-1 AML viability, CellTiter-Glo luminescence, 72 h; hit rate 7.5% among 37,000; inhibition, % (no concentration beside the values);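 active means most replicates above 80%; inconclusive means exactly half above 80%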;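 further: wells of about 30 µL received 25 nL stock; 0% = median of vehicle wells and 100% = reference inhibitor level; the first replicate is given; inactives centre near 10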
# An asterisk follows results filed as active; ? = inconclusive. The list is partial (hit frequency here may not be typical).
SMILES,NOMO-1 viab
Cc1noc(C)c1NC(=O)N(C)C[C@@H]1Oc2ccc(NC(=O)CCCCCC(=O)Nc3ccccc3N)cc2CC(=O)N([C@H](C)CO)C[C@@H]1C,10
C[C@H]1CN([C@@H](C)CO)C(=O)Cc2cc(NC(=O)CCN3CCOCC3)ccc2O[C@@H]1CN(C)C(=O)Nc1ccc2c(c1)OCO2,4
C[C@@H]1CN([C@@H](C)CO)C(=O)c2cc(NC(=O)CCCCCC(=O)Nc3ccccc3N)ccc2O[C@@H]1CN(C)C,?
C[C@H]1CN([C@@H](C)CO)C(=O)c2cccc(NC(=O)Nc3ccccc3)c2O[C@@H]1CN(C)S(=O)(=O)c1ccccc1,20
C[C@@H]1CN([C@@H](C)CO)C(=O)c2cc(NC(=O)c3ccncc3)ccc2O[C@H]1CN(C)Cc1ccc(C(F)(F)F)cc1,23
CNC[C@H]1Oc2ccc(NC(=O)C3CC3)cc2C(=O)N([C@H](C)CO)C[C@H]1C,23
C[C@H]1CN([C@@H](C)CO)C(=O)c2cccc(NC(=O)Nc3ccc(F)cc3)c2O[C@@H]1CN(C)Cc1ccc2c(c1)OCO2,72
C[C@H]1CN([C@@H](C)CO)C(=O)c2cc(NS(C)(=O)=O)ccc2O[C@H]1CN(C)S(=O)(=O)c1ccc(Cl)cc1,-8
Cc1ccc(S(=O)(=O)Nc2cccc3c2O[C@H](CN(C)S(=O)(=O)c2ccccc2)[C@H](C)CN([C@H](C)CO)C3=O)cc1,35
CC(C)NC(=O)N(C)C[C@@H]1Oc2ccc(NS(C)(=O)=O)cc2C(=O)N([C@H](C)CO)C[C@H]1C,-7
C[C@H](CO)N1C[C@H](C)[C@@H](CN(C)Cc2ccc3c(c2)OCO3)Oc2ccc(NC(=O)CCCCCC(=O)Nc3ccccc3N)cc2C1=O,-19
CCOC(=O)c1cc(C#N)c(Oc2ccc(C)cc2)nc1C(F)(F)F,73
CCn1c(SCC(N)=O)nnc1-c1ccncc1,-10
C[C@@H]1CN([C@H](C)CO)C(=O)Cc2cc(NS(=O)(=O)c3cccs3)ccc2O[C@@H]1CN(C)C(=O)Nc1ccc2c(c1)OCO2,51
CN(C)CCCN1C(=O)C(=O)C(C(=O)c2ccco2)C1c1ccc([N+](=O)[O-])cc1 (stereo unspecified),-26
COC(=O)COc1ccc(NC(=O)C2CCCO2)cc1 (stereo unspecified),?
Cc1ccc(S(=O)(=O)N(C)C[C@H]2Oc3ccc(NC(=O)c4ccncc4)cc3CC(=O)N([C@H](C)CO)C[C@H]2C)cc1,7
C[C@@H]1CN([C@@H](C)CO)C(=O)c2cc(NC(=O)C3CC3)ccc2O[C@@H]1CN(C)S(=O)(=O)c1cn(C)cn1,-2
C[C@H](CO)N1C[C@H](C)[C@H](CN(C)S(=O)(=O)c2ccccc2)Oc2ccc(NC(=O)Nc3cccc4ccccc34)cc2CC1=O,28
C[C@H]1CN([C@@H](C)CO)C(=O)Cc2cc(NC(=O)CCN3CCOCC3)ccc2O[C@@H]1CN(C)Cc1ccc(-c2ccccc2)cc1,11
Cc1ccc(S(=O)(=O)c2ccc(-c3ccccc3)cc2)cc1,12
C=C(CO)C(=O)O[C@H]1C[C@H]2C(=C)C[C@H](OC(=O)C(=C)CO)[C@H]3C(=C)C(=O)O[C@@H]3[C@H]2C1=C,117*
COc1ccc(S(=O)(=O)Nc2cccc3c2O[C@H](CN(C)Cc2ccccc2)[C@@H](C)CN([C@@H](C)CO)C3=O)cc1,5
Nc1ccc2nn(-c3ccccc3)nc2c1,30
C[C@@H]1CN([C@@H](C)CO)C(=O)c2cccc(NS(=O)(=O)c3cn(C)cn3)c2O[C@@H]1CN(C)Cc1ccc(Cl)c(Cl)c1,-1
# (listing goes on)
SMILES,NOMO-1 viab
O=C(CSc1nnnn1-c1ccccc1)c1cc2ccccc2oc1=O,29
O=c1[nH]c2ccccc2c(=O)n1CCCO,8
O=C1c2ccccc2C(=O)N1CCSc1nnnn1-c1ccccc1,4
Cc1ccc2oc(-c3cccc(NC(=O)COc4ccc(Br)cc4)c3C)nc2c1,10
C[C@@H]1CN([C@@H](C)CO)C(=O)c2cc(NS(C)(=O)=O)ccc2O[C@@H]1CN(C)C(=O)Nc1ccccc1,6
CC(Oc1ccc(Cl)cc1Cl)C(=O)Nc1cc(-c2nc3ccccc3o2)ccc1Cl (stereo unspecified),35
Cc1cc(-c2cc(C)[nH]n2)n[nH]1,-9
COc1ccc(S(=O)(=O)N(C)C[C@H]2Oc3ccc(NS(=O)(=O)c4ccc(Cl)cc4)cc3CC(=O)N([C@@H](C)CO)C[C@H]2C)cc1,18
CN(CC(=O)Nc1ccc(Oc2ccccc2)cc1)S(=O)(=O)c1ccc2ccccc2c1,-1
COc1ccc(NC(=O)N(C)C[C@H]2Oc3ccc(NC(=O)Nc4ccccc4)cc3C(=O)N([C@@H](C)CO)C[C@H]2C)cc1,36
C[C@@H]1CN([C@H](C)CO)C(=O)c2cccc(NC(=O)C3CCCCC3)c2O[C@@H]1CN(C)S(=O)(=O)c1cccs1,11
CC(C)NC(=O)Nc1ccc2c(c1)CC(=O)N([C@@H](C)CO)C[C@H](C)[C@@H](CN(C)S(C)(=O)=O)O2,4
Cc1noc(C)c1NC(=O)Nc1cccc2c1O[C@H](CN(C)Cc1ccc(Oc3ccccc3)cc1)[C@@H](C)CN([C@H](C)CO)C2=O,19
CC(C)NC(=O)Nc1ccc2c(c1)CC(=O)N([C@@H](C)CO)C[C@@H](C)[C@@H](CN(C)Cc1ccc(-c3ccccc3)cc1)O2,94*
Cc1ccc(S(=O)(=O)Nc2cccc3c2O[C@@H](CN(C)C(=O)NC(C)C)[C@H](C)CN([C@@H](C)CO)C3=O)cc1,1
C[C@@H]1CCCCO[C@@H](CN(C)S(C)(=O)=O)[C@@H](C)CN([C@H](C)CO)C(=O)c2cc(NC(=O)Nc3ccccc3)ccc2O1,-2
C[C@H](CO)N1C[C@H](C)[C@H](CN(C)C)Oc2ccc(NC(=O)Cc3cn(C)c4ccccc34)cc2CC1=O,10
CNC[C@H]1Oc2c(N)cccc2C(=O)N([C@@H](C)CO)C[C@@H]1C,-10
COc1cc(C[C@H]2C(=O)OC[C@@H]2Cc2ccc(O[C@@H]3O[C@H](CO)[C@@H](O)[C@H](O)[C@H]3O)c(OC)c2)ccc1O,21
Cc1ccc(S(=O)(=O)N(CC(=O)O)c2cc(Cl)ccc2C)cc1,-8
C[C@H](CO)N1C[C@H](C)[C@@H](CN(C)C(=O)Nc2ccccc2)Oc2c(cccc2N(C)C)C1=O,-15
COc1ccc(S(=O)(=O)Nc2ccc3c(c2)CC(=O)N([C@H](C)CO)C[C@@H](C)[C@@H](CN(C)Cc2ccc(Oc4ccccc4)cc2)O3)cc1,116*
C=C1C(=O)O[C@@H]2C3C(=C(C)[C@@H](O)[C@@H](OC(=O)/C(=C/C)COC(C)=O)[C@@H]12)C(=O)[C@H]1O[C@@]31C (stereo partly specified),119*
N#Cc1c(NC(=O)Cn2cnc3sc(-c4ccccc4)cc3c2=O)sc2c1CCC2,17
CC/C=C/c1ccc(C)cc1CCCCCC(=O)O,0
# (listing goes on)
SMILES,NOMO-1 viab
CCN(CC(=O)Nc1ccc(F)cc1F)S(=O)(=O)c1ccc2ccccc2c1,3
C[C@@H]1CN([C@@H](C)CO)C(=O)c2cc(NC(=O)NC3CCCCC3)ccc2O[C@@H]1CN(C)Cc1ccc(C(F)(F)F)cc1,21
Cc1nnc(SCC(=O)N2N=CCC2c2ccccc2)s1 (stereo unspecified),11
C[C@H]1CN([C@@H](C)CO)C(=O)c2cccc(NS(=O)(=O)c3ccc(F)cc3)c2O[C@@H]1CN(C)CC1CC1,8
C[C@@H]1CN([C@H](C)CO)C(=O)Cc2cc(NS(=O)(=O)c3ccc(Cl)cc3)ccc2O[C@H]1CN(C)S(=O)(=O)c1cccs1,31
Cc1ccc(S(=O)(=O)N(C)C[C@@H]2Oc3ccc(NC(=O)c4ccncc4)cc3CC(=O)N([C@H](C)CO)C[C@@H]2C)cc1,6
O=C(Nc1ccccc1)C(=S)N1CCOCC1,18
CS(=O)(=O)N(CC(=O)Nc1cccc([N+](=O)[O-])c1)C1CCCCC1,18
C[C@@H]1CN([C@@H](C)CO)C(=O)c2cc(NC(=O)CCN3CCOCC3)ccc2O[C@@H]1CN(C)S(=O)(=O)c1cn(C)cn1,-1
Cn1c(SCCCN2C(=O)c3cccc4cccc(c34)C2=O)nnc1-c1cccs1,10
c1ccc(Cc2nnc3sc(C4COc5ccccc5O4)nn23)cc1 (stereo unspecified),-10
O=C(CSC1=NCCN1)C1COc2ccccc2O1 (stereo unspecified),57
Cc1ccc(S(=O)(=O)N(C)C[C@H]2Oc3c(NC(=O)CCCCCC(=O)Nc4ccccc4N)cccc3C(=O)N([C@H](C)CO)C[C@H]2C)cc1,57
COc1ccc(S(=O)(=O)N(C)C[C@H]2Oc3ccc(NC(=O)Nc4ccc5c(c4)OCO5)cc3CC(=O)N([C@@H](C)CO)C[C@@H]2C)cc1,13
COc1ccc(NC(=O)Nc2cccc3c2O[C@H](CN(C)C(=O)Nc2ccccc2)[C@H](C)CN([C@@H](C)CO)C3=O)cc1,2
Cc1noc(C)c1NC(=O)Nc1ccc2c(c1)CC(=O)N([C@@H](C)CO)C[C@@H](C)[C@@H](CN(C)S(=O)(=O)c1ccccc1)O2,-3
Cc1ccc(-c2nc(S(=O)(=O)c3ccc(Cl)cc3)c(SCC(N)=O)o2)cc1,22
C[C@H](CO)N1C[C@H](C)[C@H](CN(C)S(C)(=O)=O)Oc2ccc(NC(=O)Nc3ccc(F)cc3)cc2C1=O,15
COC(=O)c1ccccc1NC(=O)C(C)Oc1ccc2c(C)cc(=O)oc2c1 (stereo unspecified),89*
COc1ccc(NC(=O)N(C)C[C@H]2Oc3c(NC(=O)NC(C)C)cccc3C(=O)N([C@H](C)CO)C[C@H]2C)cc1,4
C[C@@H]1CN([C@@H](C)CO)C(=O)c2cc(NC(=O)C3CCCCC3)ccc2O[C@H]1CN(C)C(=O)Nc1ccc(C(F)(F)F)cc1,11
NNC(=O)c1ccc(CSc2ccc(C(F)(F)F)cn2)o1,34
C[C@H](CO)N1C[C@H](C)[C@@H](CN(C)S(=O)(=O)c2cn(C)cn2)Oc2ccc(NS(=O)(=O)c3ccc(F)cc3)cc2C1=O,21
C[C@@H]1CN([C@H](C)CO)C(=O)c2cccc(NS(=O)(=O)c3cccs3)c2O[C@@H]1CN(C)C(=O)Nc1ccccc1,25
COc1cc(OC)c2c(OC)c(-c3ccc4c(c3)OCO4)c(=O)oc2c1,-4

# 3 entries from above, with tabs:
SMILES	NOMO-1 viab
Cc1ccc(S(=O)(=O)N(C)C[C@@H]2Oc3ccc(NC(=O)c4ccncc4)cc3CC(=O)N([C@H](C)CO)C[C@@H]2C)cc1	6
COc1ccc(S(=O)(=O)Nc2ccc3c(c2)CC(=O)N([C@H](C)CO)C[C@@H](C)[C@@H](CN(C)Cc2ccc(Oc4ccccc4)cc2)O3)cc1	116*
CN(C)CCCN1C(=O)C(=O)C(C(=O)c2ccco2)C1c1ccc([N+](=O)[O-])cc1 (stereo unspecified)	-26

# Going on with the list.
SMILES,NOMO-1 viab
C[C@@H]1CN([C@@H](C)CO)C(=O)c2cccc(NC(=O)Nc3ccccc3)c2O[C@H]1CN(C)C(=O)Nc1ccc2c(c1)OCO2,2
Cc1noc(C)c1NC(=O)N(C)C[C@@H]1Oc2ccc(NC(=O)Nc3ccc(C(F)(F)F)cc3)cc2C(=O)N([C@@H](C)CO)C[C@@H]1C,4
C[C@@H]1CCCCO[C@@H](CN(C)C(=O)CCCN(C)C)[C@@H](C)CN([C@H](C)CO)C(=O)c2cc(NS(=O)(=O)c3ccccc3)ccc2O1,-17
CSc1cccc(NC(=O)C(C)N(c2ccc(C)c(C)c2)S(C)(=O)=O)c1 (stereo unspecified),21
CC(=O)Nc1ccc(-c2nnc(SCC(=O)Nc3cccc(C(F)(F)F)c3)n2C)cc1,15
C[C@H](CO)N1C[C@H](C)[C@H](CN(C)Cc2ccccc2)Oc2c(NC(=O)C3CCOCC3)cccc2C1=O,-10
Cc1ccc(S(=O)(=O)N(C)C[C@H]2Oc3c(NC(=O)C4CC4)cccc3C(=O)N([C@@H](C)CO)C[C@@H]2C)cc1,29
Cn1c(=O)/c(=C/c2ccccc2)n(C)c(=O)/c1=C/c1ccccc1,40
Cc1noc(C)c1S(=O)(=O)Nc1cccc2c1O[C@H](CN(C)S(=O)(=O)c1cccs1)[C@H](C)CN([C@@H](C)CO)C2=O,73
CCOC(=O)C1=C(C)NC(=S)NC1c1cc(I)c(OCC#N)c(OC)c1 (stereo unspecified),33
CCOc1ccc(C(=O)c2oc3ccccc3c2NC(=O)c2cc(OC)c(OC)c(OC)c2)cc1,27
C[C@H]1CN([C@@H](C)CO)C(=O)Cc2cc(NC(=O)Nc3ccc4c(c3)OCO4)ccc2O[C@@H]1CN(C)S(=O)(=O)c1ccc(F)cc1,16
CC(=O)Nc1ccc(NC(=O)CN(c2ccccc2Br)S(C)(=O)=O)cc1,30
CSc1cccc(NC(=O)C(C)NS(=O)(=O)c2ccccc2)c1 (stereo unspecified),39

# Entries shown so far containing a nitro group on carbon, in the order listed:
SMILES,NOMO-1 viab
CN(C)CCCN1C(=O)C(=O)C(C(=O)c2ccco2)C1c1ccc([N+](=O)[O-])cc1 (stereo unspecified),-26
CS(=O)(=O)N(CC(=O)Nc1cccc([N+](=O)[O-])c1)C1CCCCC1,18

# Quoted at random: seven entries already listed
SMILES,NOMO-1 viab
Cn1c(=O)/c(=C/c2ccccc2)n(C)c(=O)/c1=C/c1ccccc1,40
Cc1noc(C)c1NC(=O)N(C)C[C@@H]1Oc2ccc(NC(=O)Nc3ccc(C(F)(F)F)cc3)cc2C(=O)N([C@@H](C)CO)C[C@@H]1C,4
C[C@@H]1CCCCO[C@@H](CN(C)C(=O)CCCN(C)C)[C@@H](C)CN([C@H](C)CO)C(=O)c2cc(NS(=O)(=O)c3ccccc3)ccc2O1,-17
CCOc1ccc(C(=O)c2oc3ccccc3c2NC(=O)c2cc(OC)c(OC)c(OC)c2)cc1,27
C[C@H](CO)N1C[C@H](C)[C@H](CN(C)Cc2ccccc2)Oc2c(NC(=O)C3CCOCC3)cccc2C1=O,-10
C[C@@H]1CN([C@@H](C)CO)C(=O)c2cccc(NC(=O)Nc3ccccc3)c2O[C@H]1CN(C)C(=O)Nc1ccc2c(c1)OCO2,2
CSc1cccc(NC(=O)C(C)N(c2ccc(C)c(C)c2)S(C)(=O)=O)c1 (stereo unspecified),21

# Assay outcomes: PubChem BioAssay, Broad Institute
